Assay outcomes deposited in PubChem by several laboratories.
PABP FP inh: PABP-poly(A) binding inhibition | 1% of 290,000 active | PABP-poly(A) RNA binding, fluorescence polarization | inhibition, % at 35 µM | AID 2014 | P11940;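 active = 50% or more with normal probe brightness, or confirmed in later tests; inconclusive = above 50% with abnormal brightness, or retests that disagree; inactive = below 50% or failed in later tests; about a fifth of its hits are not listed in these tables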;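 note: calls also rest on retests at 20 µM and on dose response follow-up; controls were probe without protein and protein plus probe with vehicle; some compounds called inactive have numbers as strong as hits; many hits fall short of the cut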
HIV Env fusion: HIV envelope-mediated fusion inhibition | HeLa-JRFL Env/CEM21 cell fusion, luciferase | inhibition, % at 12.3 µM | 1.1% of 360,000 active;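 active = mean replicate inhibition score of at least 50 and every replicate individually at or above 50; inconclusive = only one of the two criteria met; inactive = mean below 50 and not all replicates reaching 50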;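 note: 0% = plate neutral controls and 100% = maraviroc near 300 nM; one replicate is shown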
UUG fidelity: yeast start codon fidelity modulation; activity score, % at 18.7 µM; 0.13% of 350,000 active; S. cerevisiae UUG-firefly luciferase reporter, luminescence/redox ratio;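 active = replicate mean at a twofold rise or more, about +100% in these data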;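 note: firefly luciferase made from a UUG start codon reports start codon fidelity; reporter light over untreated wells divided by growth signal over untreated wells; some hits fall short of that in this replicate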
Rce1 inh: yeast Ras-converting enzyme inhibition; calls only; Q03530; 0.27% of 290,000 active; yeast membranes, quenched prenylated peptide cleavage fluorescence;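 active = fall in fluorescence gain of 50% or more versus controls, with final raw signal at or below 3038400; inconclusive = same 50% fall but final raw signal above 3038400; inactive = fall in fluorescence gain under 50%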;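 note: plate controls were neutral control wells for no effect and wells lacking membranes for full effect; tested at 10 µM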
Target sequence (Q03530 whole entry, looked up): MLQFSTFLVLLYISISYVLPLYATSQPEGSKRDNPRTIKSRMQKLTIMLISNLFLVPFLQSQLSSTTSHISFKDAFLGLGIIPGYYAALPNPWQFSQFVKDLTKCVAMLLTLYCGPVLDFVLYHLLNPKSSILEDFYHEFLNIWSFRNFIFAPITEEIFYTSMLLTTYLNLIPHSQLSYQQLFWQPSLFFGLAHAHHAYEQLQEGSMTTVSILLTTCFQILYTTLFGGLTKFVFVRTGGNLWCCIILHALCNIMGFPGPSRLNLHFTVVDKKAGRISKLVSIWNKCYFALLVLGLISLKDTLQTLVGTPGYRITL
CSC inhib: blocks cancer stem cells. cancer stem cell-like cells viability, luminescence. inhibition, % at 7.5 µM. 1.1% of 300,000 active;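 active = mean at 75% or more and at least half the replicates too; inconclusive = mean and replicates disagree; tested in HMLE shEcad cells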;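 note: 0% = median of negative and 100% = median of positive control wells; the first replicate is given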
eIF4H FP inh: inhibitors of RNA binding by human eIF4H; Q15056; eIF4H fluorescence polarization binding assay; AID 2012; 0.94% of 290,000 active; inhibition, % at 35 µM;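 active = 50% or more with normal probe brightness, or confirmed in later tests; inconclusive = above 50% with abnormal brightness, or retests that disagree; inactive = below 50% or failed in later tests; about a fifth of its hits are not listed in these tables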;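 note: calls also rest on retests at 20 µM and on dose response follow-up; 0% = protein and probe with vehicle and 100% = probe without protein; strong numbers were not always called active; many hits fall short of the cut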
MT1-MMP act inh: inhibitors of human MT1-MMP activation; HT1080 RFP-PRO-GFP cells, GFP/RFP ratio fluorescence, overnight; percent of plate control window, DMSO zero; GFP/RFP ratio change, % at 20 µM; 0.061% of 360,000 active;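 active = GFP/RFP ratio change of at least 30% with cell ATP level not reduced by more than half and red fluorescence within 50% of control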; note: strong numbers were not always called active
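Material: RFP-PRO-GFP reporter HT1080 cells. Dosing: single-point 20 µM compound, 1% DMSO. Controls: DMSO and RFP-L50D-GFP cell wells. Timing: cells overnight before dosing, compound overnight, 37 °C, 5% CO2. Measure: GFP/RFP fluorescence ratio.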
eIF4H FP inh retest: also measured in eIF4H FP inh; calls as there; inhibition, %; compound at 20 µM; confirmation average;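 mean of two retest wells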
PABP FP inh retest: also measured in PABP FP inh; calls as there; inhibition, %; compound at 20 µM; confirmation repeats;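 mean of two retest wells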
MT1-MMP act inh RFP: further read-out of MT1-MMP act inh, marked with its call; RFP signal change, %; measured here: RFP expression control read;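 0 = vehicle wells; hits needed this value within 50% of zero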
* = called active by the depositor; i = inactive; ? = inconclusive; . = not tested or not shown.

SMILES	PABP FP inh	HIV Env fusion	UUG fidelity	Rce1 inh	CSC inhib	eIF4H FP inh	MT1-MMP act inh	MT1-MMP act inh RFP	others
CC1(C)CC(=O)C2=C(C1)N(c1cccc(Cl)c1)C(=O)NC2(C(F)(F)F)C(F)(F)F	-8	.	-8	i	-4	14	4	4
COc1ccc(CC(=O)NCc2ccccc2)cc1S(=O)(=O)N1CCOCC1	2	-37	-4	i	-1	46	3	4
CC(=O)c1cccc(S(=O)(=O)N2CCCC(c3nc4c(nnn4Cc4ccccc4Cl)c(=O)[nH]3)C2)c1 (centres undefined)	-1	14	-7	i	.	-6	-2	-2
CC(=O)c1cccc(-c2ccnc3c2CC(C(=O)NC(C)C)O3)c1 (centres undefined)	.	2	5	.	.	.	4	7
COc1ccc(/C=C\c2nc(O)c([N+](=O)[O-])c(=O)[nH]2)cc1O	14	-14	-8	i	-5	2	4	3
Cc1nn(C)cc1S(=O)(=O)NCc1ccc2c(c1)OCO2	-1	-20	-12	i	-21	-6	-2	1
O=C(CSc1ccccc1C(=O)O)NCc1ccccc1	-5	-22	-7	i	-6	2	1	4
Cc1cccc(C(=O)OCC(=O)N(CC(C)C)c2c(N)n(Cc3ccccc3)c(=O)[nH]c2=O)c1O	.	14	-5	i	-2	.	-7	-6
C#CC1(NC(=O)NC(C)(C)C)CCCCC1	-3	-8	.	i	-11	-5	-7	1
Cc1ccc(S(=O)(=O)NCC(=O)OCCOc2ccc(Br)cc2)cc1	.	-3	-2	.	-5	.	0	2
O=C(O)c1cccc(-c2csc(C(O)c3ccccc3)n2)c1 (centres undefined)	.	-11	-25	.	.	.	-3	7
CCN1C(=O)[C@@H]2[C@@H](c3ccc(-c4ccc(F)cc4)cc3)N3CCC[C@@]3(C(=O)OC)[C@@H]2C1=O	.	-7	1	i	7	.	4	-4
CC(NC(=O)C1CCN(S(=O)(=O)c2cnc[nH]2)CC1)c1ccccc1 (centres undefined)	6	.	17	i	5	-3	-2	4
O=C(O)COCC(=O)Nc1ccc(OCCc2ccccc2)cc1	-8	0	16	i	3	-5	-7	-1
COC(=O)c1cc(C(=O)OCC(=O)NCc2cccs2)cc([N+](=O)[O-])c1	.	3	-16	.	-8	.	-1	1
CCCc1ncc(C(O)c2cccc3ccccc23)n1C (centres undefined)	10	-12	-18	i	-1	6	-9	-6
O=C(CSc1nnc(CNC(=O)c2ccccc2)o1)Nc1ccc2c(c1)OCO2	-12	.	-7	i	-2	-10	3	4
COc1cc(Cn2c(=O)c3c(OC)c(C)cnc3n(C)c2=O)cc(OC)c1	14	-6	-24	i	31	-4	0	-1
COc1cc(CNCCSc2nnnn2C)cc(OC)c1OC	12	-27	-6	i	-9	-1	-5	-1
Cc1ccccc1Nc1nc(N)nc(CN2CCN(c3ccccn3)CC2)n1	-3	.	-33	i	-3	-4	5	4
O=C(COc1ncnc2scc(-c3ccccc3)c12)NCCN1C(=O)CSC1=O	-15	.	.	i	.	-3	.	.
CCOC(=O)c1c(/N=C/c2cc([N+](=O)[O-])ccc2O)sc(C)c1C	3	25	5	i	1	44	-2	4
Cc1nc2c(ccc3nc(NC(=O)C4CC4)sc32)s1	5	?	-19	i	10	-2	-7	-7
O=C(CN(Cc1ccccc1F)S(=O)(=O)c1ccc(Cl)cc1)NCC1CCCO1 (centres undefined)	6	4	-4	i	-3	-13	0	4
CCCc1cc(=O)n2[nH]c(NCc3c(Cl)cccc3Cl)nc2n1	5	-8	-11	i	-5	-5	-3	-1
COc1ccc(NC(=O)CSc2cn[nH]n2)cc1OC	10	10	21	i	7	16	3	4
C#CCOCCOCCOCCNc1nc(N2CCN(C(=O)[C@H]([C@@H](C)CC)n3cc([C@@H](N)Cc4ccc(O)cc4)nn3)CC2)nc(N2CCN(C(=O)[C@H](Cc3ccc(O)cc3)n3cc([C@@H](N)C(C)CC)nn3)CC2)n1 (some centres undefined)	-10	1	9	i	-10	-10	-1	3
Cc1ccc(C(=O)Nc2ccc(N3CCOCC3)cc2)cc1	1	-87	-15	i	-28	-5	3	0
COc1ccc(C(CNc2nc(-c3cccnc3)nc3ccccc23)N(C)C)cc1 (centres undefined)	-15	-32	-9	.	5	-17	-22	-7
Cc1ccc(-c2nnn(CC(=O)NCc3ccccc3)n2)c(-n2cnnn2)c1	4	.	-1	i	21	-4	-4	-8
Cc1ccc(-c2c(C(=O)Nc3ccccc3C)c(C)[nH]c(=S)c2C#N)o1	5	-7	.	.	7	?	-21	8
O=C(Nc1nc(-c2ccccn2)cs1)c1ncc(Cl)c(Cl)c1Cl	-11	.	-29	i	-12	20	-3	-1
O=C(Cc1coc2cc(O)ccc12)N1CCN(S(=O)(=O)c2ccc(Br)cc2)CC1	.	2	-9	.	.	.	2	-10
COc1ccc(-c2cc3nc(NCC4CCCCC4)n(C)c(=O)c3s2)cc1OC	.	-6	10	.	.	.	4	-7
Cc1ccccc1-c1cnn(-c2cccc([N+](=O)[O-])c2)c1N	8	5	-16	i	.	-4	0	1
O=C1NCCN1Cc1ccccc1	2	7	-26	i	0	2	-1	2
CC1(CC(=O)N/N=C/c2ccc(-c3ccc(Cl)cc3)o2)OCCO1	-5	-37	-15	i	-15	0	-1	3
Cc1cccc(-n2nc3c(c2NC(=O)c2ccc(Br)o2)CSC3)c1	-6	.	-14	i	-5	1	-3	2
Nc1ccc(C#Cc2ccc3oc4ccccc4c(=O)c3c2)cc1	.	-117	-17	i	9	.	-1	-2
C/C(=N\NC(=O)c1cccs1)c1ccc2ccccc2c1	-7	-30	-18	i	-9	-2	3	-1

As a working copy, five of the compounds above:
SMILES	PABP FP inh	HIV Env fusion	UUG fidelity	Rce1 inh	CSC inhib	eIF4H FP inh	MT1-MMP act inh	MT1-MMP act inh RFP	others
Cc1ccc(C(=O)Nc2ccc(N3CCOCC3)cc2)cc1	1	-87	-15	i	-28	-5	3	0
COc1ccc(C(CNc2nc(-c3cccnc3)nc3ccccc23)N(C)C)cc1 (centres undefined)	-15	-32	-9	.	5	-17	-22	-7
Cc1ccc(-c2nnn(CC(=O)NCc3ccccc3)n2)c(-n2cnnn2)c1	4	.	-1	i	21	-4	-4	-8
Cc1ccc(-c2c(C(=O)Nc3ccccc3C)c(C)[nH]c(=S)c2C#N)o1	5	-7	.	.	7	?	-21	8
O=C(Nc1nc(-c2ccccn2)cs1)c1ncc(Cl)c(Cl)c1Cl	-11	.	-29	i	-12	20	-3	-1

Other compounds follow:
SMILES	PABP FP inh	HIV Env fusion	UUG fidelity	Rce1 inh	CSC inhib	eIF4H FP inh	MT1-MMP act inh	MT1-MMP act inh RFP	others
COc1ccc2oc(=O)c(-c3nnc(N)s3)cc2c1	-12	-24	.	i	-2	6	4	2
N=c1c(S(=O)(=O)c2ccc(F)cc2)cc2c(=O)n3ccccc3nc2n1CC1CCCO1 (centres undefined)	0	-4	11	i	16	-4	18	0
Nc1ncnc2c1ncn2[C@@H]1O[C@H](CNS(=O)(=O)C2CC2)[C@@H](O)[C@H]1O	.	-8	-19	.	.	.	-1	3
O=C(CSc1nc2ccccc2[nH]1)Nc1c(F)c(F)c(F)c(F)c1F	15	12	.	i	.	9	0	2
O=C(CNC(=O)c1ccccc1)OCCCOC(=O)CNC(=O)c1ccccc1	-1	.	-22	i	-5	8	1	6
COC(=O)CNC(=O)Cn1cnc2sc(C)c(S(=O)(=O)N3CCN(c4ccccc4OC)CC3)c2c1=O	-1	16	-7	.	-4	-2	2	5
Cc1ccc(/C=C/C(=O)Nn2cnnc2)cc1	-4	.	-13	i	20	2	5	2
COc1cc(Br)cc2cc(C(=O)N3CCOCC3)c(=O)oc12	4	-7	-12	i	-31	-8	-5	-1
COc1cc(/C=N/NC(=O)CNS(=O)(=O)c2ccc(C)cc2)cc(OC)c1OC	.	11	.	i	6	.	0	-4
CC(=O)Nc1cccc(NC(=O)c2c(-c3ccccc3)noc2C)c1	1	.	4	i	-4	8	8	-12
CC(C)Cc1ccc(C(C)C(=O)Nc2ncccn2)cc1 (centres undefined)	6	29	.	i	12	2	-6	-6
CC(C)c1ccc(NC(=O)c2sccc2-n2cccc2)cc1	3	-17	.	.	33	-8	-4	-4
CCCc1nnc(NC(=O)CN2CCOCC2)s1	-8	-41	-24	i	-3	-6	-8	-5
O=C(CCc1ccc(S(=O)(=O)NCc2ccccc2)cc1)NCc1cccnc1	-7	.	2	i	-1	-8	1	-2
COc1ccc2c(c1)CCC(C)N2C(=O)C(=O)c1c[nH]c2ccccc12 (centres undefined)	-4	-31	8	i	18	9	3	-2
O=C1SCCN1N=Cc1ccc([N+](=O)[O-])o1	.	8	8	.	.	.	2	-5
CCOc1ccc(NC(=S)Nc2ccc(Br)cc2Cl)cc1	1	-3	.	i	-14	-4	-1	-1
O=C(Oc1ccccc1)c1c(Cl)cccc1P(=O)(O)O	1	.	.	i	-1	-2	8	5
CCCNc1c(N)n(-c2ccccc2)c(=O)[nH]c1=O	-2	-15	-18	i	-1	9	5	7
CNC(=S)NNC(=O)c1ccccc1F	-6	-9	.	i	-4	-6	1	4

Structural class, the compounds so far with a nitro group on carbon
SMILES	PABP FP inh	HIV Env fusion	UUG fidelity	Rce1 inh	CSC inhib	eIF4H FP inh	MT1-MMP act inh	MT1-MMP act inh RFP	others
COc1ccc(/C=C\c2nc(O)c([N+](=O)[O-])c(=O)[nH]2)cc1O	14	-14	-8	i	-5	2	4	3
COC(=O)c1cc(C(=O)OCC(=O)NCc2cccs2)cc([N+](=O)[O-])c1	.	3	-16	.	-8	.	-1	1
CCOC(=O)c1c(/N=C/c2cc([N+](=O)[O-])ccc2O)sc(C)c1C	3	25	5	i	1	44	-2	4
Cc1ccccc1-c1cnn(-c2cccc([N+](=O)[O-])c2)c1N	8	5	-16	i	.	-4	0	1
O=C1SCCN1N=Cc1ccc([N+](=O)[O-])o1	.	8	8	.	.	.	2	-5

Further results.
SMILES	PABP FP inh	HIV Env fusion	UUG fidelity	Rce1 inh	CSC inhib	eIF4H FP inh	MT1-MMP act inh	MT1-MMP act inh RFP	others
CN(C)S(=O)(=O)c1cccc(NC(=O)CCCSc2ccccc2)c1	14	8	-8	i	-2	12	-2	-1
Cn1nc(C(C)(C)C)cc1C(=O)NNC(=O)c1ccccc1Cl	-3	28	.	i	-4	2	-1	-14
Cc1cc(NS(=O)(=O)c2ccc(NC(=S)NCc3ccccc3)cc2)no1	1	-9	-23	i	-4	10	9	4
CCOC(=O)c1ccc(NC(=S)NCC(O)c2ccccc2)cc1 (centres undefined)	-9	18	.	i	7	1	3	0
CCOc1ccc(C2C(C#N)=C(N)N3C(=C2C#N)Sc2ccccc23)cc1 (centres undefined)	54	.	-3	i	.	47	-63	5	eIF4H FP inh retest=13;PABP FP inh retest=42
COC(=O)Cn1c(=NC(=O)CN2C(=O)CCC2=O)sc2cc(S(N)(=O)=O)ccc21	-4	-18	-33	i	-5	12	3	12
Cc1cnc(C(=O)OCC(=O)Nc2cccc(S(=O)(=O)N3CCOCC3)c2)cn1	.	-5	-10	.	-12	.	5	2
NC(=O)CCC(C(=O)O)N1C(=O)C2C3CCC(C3)C2C1=O (centres undefined)	.	-8	7	.	.	.	0	2
